Vif TR-FRET = inhibitors of Vif binding to APOBEC3G peptide, primary screen, biochemical, TR-FRET, GST-Vif 1-94, biotin-A3G peptide, dose response retest (AID 1117319); TR-FRET GST-Vif / biotin-A3G peptide binding; higher % means a stronger effect; test concentration not given here; strong numbers were not always called active; inhibition, %, or IC50 in µM where a hit was titrated; hit rate 0.57% among 260,000;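 active = above the screen mean plus three standard deviations and confirmed in dose response; inconclusive = results disagree or hit not tested in dose response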;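 also: Vif residues 1-94 fused to GST binding biotinylated APOBEC3G peptide 110-148; 0% = full assay without inhibitor and 100% = GST in place of GST-Vif; retest series ran down from 100 µM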
RanGTP-Imp inh = inhibitors of RanGTP-importin-beta interaction, primary screen, biochemical, FRET, CFP-Ran, YFP-importin-beta, homogeneous | cell-free CFP-Ran/YFP-importin-beta FRET ratio | inhibition, % (concentration not given with the values) | hit rate 1.1% among 300,000;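 active = most replicates above 15%; inconclusive = exactly half above 15%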;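 also: 0% = DMSO wells and 100% = Ran loaded with GDP instead of GTP; wells of about 40 µL received 100 nL stock; the first replicate is given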
Beta cell apopt = blocks beta cell apoptosis. INS-1E cytokine-induced death, ATP luminescence, 48 h; percent of positive-control rescue, neutral wells zero. hit rate 0.8% among 300,000. protection from apoptosis, % (no concentration beside the values);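 active = all replicates at 75% or more, or half of them and the mean; inconclusive = half reach 75% but not the mean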;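 also: 0% = cytokine-treated negative control wells and 100% = positive control rescue; higher means more ATP so stronger rescue from cytokine killing; wells of about 40 µL received 100 nL stock; the first replicate is given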
AF4-AF9 inh = MLL-AF4/AF9 protein interaction inhibition; inhibition, % at 10 µM; hit rate 0.47% among 350,000; P42568; AlphaScreen, biotin-AF4 peptide binding to FLAG-AF9;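 active = every replicate reaching a set inhibition limit, whatever the replicate mean, cut at about 25% in these data; inconclusive = mean inhibition reaches that limit but some replicates miss it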;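 also: 0% = plate neutral control median and 100% = total signal loss; the record names both 10 and 1 µM as test concentration; the first replicate is given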
Calb FLC = C. albicans growth modulation with fluconazole. C. albicans CaCi-2 (fluconazole-resistant clinical isolate) + fluconazole, Alamar Blue growth, 48 h. growth inhibition, % (concentration not given with the values). hit rate 0.57% among 300,000. AID 1979;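 active = most replicates above 75%; inconclusive = exactly half above 75%; inactive = most below 75%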;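 also: all wells also contain fluconazole at 8 µg/ml as a sub-toxic cotreatment; 0% = median of DMSO wells and 100% = median of geldanamycin control wells; wells of about 8 µL received 7.5 nL stock; the first replicate is given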
Bfl-1 A1 inh = inhibitors of the anti-apoptotic protein A1, read as caspase activation; MEF A1-2A-BIM cells, Caspase-Glo 3/7 luminescence, 3 h; percent of clofoctol response, vehicle zero; caspase activation, % (concentration not given with the values); hit rate 0.066% among 330,000;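 active = over half of replicate activation scores above 10%, or exactly half above 10 with the replicate mean above 10; inconclusive = replicate mean below 10 yet half the replicates above 10; inactive = over half of replicates below 10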;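 also: wells of about 30 µL received 50 nL stock; many hits fall short of the cut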
T cruzi inh = blocks replication of Trypanosoma cruzi; T. cruzi beta-gal in NIH3T3, luminescence, 90 h; inhibition, % (test concentration not listed); hit rate 1.4% among 300,000; AID 1885;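 active = mean inhibition across valid replicates above about 55%, limit read from the data; inconclusive = mean below that limit but half or more replicates reach it; inactive = mean below it, under half of replicates reach it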;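 also: signal also drops with host cell toxicity which is not excluded here; 0% = plate median of DMSO wells and 100% = zero luminescence signal; higher percent means less beta-gal luminescence so fewer parasites; stock transfer was 50 nL into about 50 µL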
LANA-H2A inh = blocks KSHV LANA binding to histone H2A/H2B. inhibition, % (test concentration not listed). Q9QR71. hit rate 0.6% among 320,000. AID 2629. cell-free LANA-H2A/H2B peptide, fluorescence polarization; in the data active = inhibition mostly above about 10%, no sharp cut-off; inactive = mostly below about 6.7%;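 also: stock transfer was 7.5 nL into about 10 µL; 0% = median of vehicle wells and 100% = median of positive control wells; one replicate is shown; the record names a cut of 25% in any replicate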
Target sequence (Q9QR71 whole entry, looked up): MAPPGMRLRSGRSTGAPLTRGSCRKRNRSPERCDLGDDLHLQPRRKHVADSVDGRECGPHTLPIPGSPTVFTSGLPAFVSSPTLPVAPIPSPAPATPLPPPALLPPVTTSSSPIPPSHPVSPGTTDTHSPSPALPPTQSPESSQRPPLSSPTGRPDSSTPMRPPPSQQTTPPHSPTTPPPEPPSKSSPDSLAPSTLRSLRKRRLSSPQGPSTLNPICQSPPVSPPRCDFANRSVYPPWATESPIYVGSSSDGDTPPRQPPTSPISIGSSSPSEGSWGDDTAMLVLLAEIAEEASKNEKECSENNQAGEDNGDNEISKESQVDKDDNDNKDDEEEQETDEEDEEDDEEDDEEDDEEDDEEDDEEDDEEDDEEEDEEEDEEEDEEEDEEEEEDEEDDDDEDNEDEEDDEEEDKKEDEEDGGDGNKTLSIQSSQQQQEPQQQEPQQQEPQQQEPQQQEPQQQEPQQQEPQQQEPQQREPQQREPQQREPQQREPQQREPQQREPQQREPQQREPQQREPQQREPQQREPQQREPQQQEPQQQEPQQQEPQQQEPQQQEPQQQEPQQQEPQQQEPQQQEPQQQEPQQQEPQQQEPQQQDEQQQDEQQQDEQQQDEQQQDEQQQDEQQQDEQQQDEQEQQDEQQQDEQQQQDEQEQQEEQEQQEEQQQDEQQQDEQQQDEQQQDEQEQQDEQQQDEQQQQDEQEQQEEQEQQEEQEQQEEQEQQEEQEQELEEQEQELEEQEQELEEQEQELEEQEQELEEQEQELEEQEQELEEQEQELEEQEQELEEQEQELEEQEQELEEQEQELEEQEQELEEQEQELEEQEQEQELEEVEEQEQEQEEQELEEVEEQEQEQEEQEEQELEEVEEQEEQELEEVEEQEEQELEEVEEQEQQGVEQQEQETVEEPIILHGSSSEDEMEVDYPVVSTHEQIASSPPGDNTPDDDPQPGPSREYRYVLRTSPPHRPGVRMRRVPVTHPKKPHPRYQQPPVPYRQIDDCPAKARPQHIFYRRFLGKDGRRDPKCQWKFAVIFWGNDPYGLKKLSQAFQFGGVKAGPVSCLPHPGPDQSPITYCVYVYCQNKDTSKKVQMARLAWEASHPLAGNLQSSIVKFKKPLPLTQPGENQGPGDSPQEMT
* hit, by the source's call; ? = inconclusive; nt = not tested or not shown; & = joins results of further samples; ! = not active in a repeat. The list is partial, so the mix of outcomes need not match the whole.

nr | molecule | Vif TR-FRET | RanGTP-Imp inh | Beta cell apopt | AF4-AF9 inh
1 | Cc1nc2c3ccccc3nc(NNC(=O)CCC(=O)N3CCN(c4ccccc4F)CC3)n2n1 | 14% | -0.4 | 3 | -0.5
2 | CC(C)NNC(=O)c1ccncc1 | 3% | 0.8 | -19 | -0.4
3 | O=C(O)c1cc(=O)c2ccccc2o1 | nt | -1.1 | -2 | -3.6
4 | CCN(CCCCOC(=O)c1ccc(OC)c(OC)c1)C(C)Cc1ccc(OC)cc1 (stereo not drawn) | 0% | ? | 4 | 0.1&1.8
5 | CCCCCCCCCCCCCCCC(O)C(N)CO (stereo not drawn) | -11% | 0.9 | nt | -1.3
6 | O=C(c1ccccn1)N(Cc1cccs1)C1(C(=O)NC2CCCCC2)CCCCC1 | -3% | 3.9 | nt | -4.6
7 | CCc1cccc(CC)c1NC(=O)CN(CC(=O)O)CC(=O)O | nt | nt | -7 | -4.6
8 | O=C(NC1CCN(CCc2c[nH]c3ccccc23)CC1)c1ccccc1 | 0% | -2.2 | nt | 9.4
9 | CCN(CC)CC1CCCCN1CC(=O)N1c2ccccc2C(=O)Nc2cccnc21 (stereo not drawn) | -21% | 5.9 | 1 | nt
10 | N=c1nc(N2CCCCC2)cc(N)n1O | 29% | ? | -1&-4 | 1.7&-6.1
11 | Cc1scc2c1N(C(=O)CN1CCN(C)CC1)c1ccccc1NC2=O | 1% | 2.5 | 6 | -5.1
12 | CCCC(=O)O[C@]1(C(=O)CCl)[C@@H](C)C[C@H]2[C@@H]3CCC4=CC(=O)C=C[C@]4(C)[C@@]3(F)C(=O)C[C@@]21C | -10% | 6.5 | -9 | 0.9

nr | Calb FLC | Bfl-1 A1 inh | T cruzi inh | LANA-H2A inh
1 | 5 | 0.5 | -6 | 2.7
2 | nt | 0.9 | 11 | 7.4
3 | -3 | -0.4 | -18 | -7.9
4 | nt | -0.2 | 26 | 8.7*
5 | nt | 0.4 | 9 | 4.1
6 | 13 | 0.7 | 10 | 3.4
7 | nt | 0.5 | nt | -4.9
8 | -3 | 0.6 | -4 | 3.1
9 | nt | -0.2 | -18 | 0.8
10 | nt | -0.1&-0.1 | -4&-10 | -0.1&-12
11 | 11 | -0.1 | -26 | -1.4
12 | nt | 0.9 | 10 | -1.4

The list continues:
nr | molecule | Vif TR-FRET | RanGTP-Imp inh | Beta cell apopt | AF4-AF9 inh
13 | COc1ccc(C(=O)c2ccccc2)c(O)c1 | 1% | 0.7 | -6 | nt
14 | CCCC1(c2ccccc2)NC(=O)N(CC(=O)N(C)Cc2c(F)cccc2Cl)C1=O (stereo not drawn) | 4% | 3.5 | nt | -3.5
15 | CC(Cc1cccc(C(F)(F)F)c1)NCCOC(=O)c1ccccc1 (stereo not drawn) | nt | 4.2 | -11&-2 | 0.8&-4.2
16 | CN(C)S(=O)(=O)n1cc(/C=C(\NC(=O)c2ccccc2)C(=O)NCCCn2ccnc2)c2ccccc21 | -11% | 1.1 | -5 | 9.0
17 | O=C(O)Cc1cn(-c2ccccc2)nc1-c1ccc(Cl)cc1 | nt | -0.6 | -2 | -3.6
18 | CCCOc1ccc(C(=O)OCCN(CC)CC)cc1N | nt | 5.2 | -5 | 3.9
19 | O=C1c2c(O)ccc(O)c2C(=O)c2c(NCCNCCO)ccc(NCCNCCO)c21 | 8µM* | nt | 67 | 97*
20 | CCC(C(=O)Nc1ccccc1N1CCCC1)c1ccccc1 (stereo not drawn) | nt | -0.7 | -8 | 3.4
21 | CCCCN(CCCC)CCCOC(=O)c1ccc(N)cc1 | 6% | 5.1 | -10 | 5.6
22 | CC(C)(C)NCC(O)COc1cccc2c1C[C@H](O)[C@H](O)C2 (stereo partly drawn) | 26% | -2.0 | -4 | -0.2
23 | CC[C@]12CCCN3CCc4c(n(c5ccccc45)[C@](O)(C(=O)OC)C1)[C@@H]32 | nt | nt | -8 | 3.6
24 | COc1cc(C2Oc3cc(C4Oc5cc(O)cc(O)c5C(=O)C4O)ccc3OC2CO)ccc1O (stereo not drawn) | nt | 2.6 | -8 | 1.5

nr | Calb FLC | Bfl-1 A1 inh | T cruzi inh | LANA-H2A inh
13 | -3 | 0.5 | -10 | 0.2
14 | 1 | -0.2 | -10 | -3.5
15 | nt | 0.0&-1.0 | 15 | -0.3&-1.2
16 | -6 | 0.6 | -23 | -1.5
17 | 64 | 0.0 | -23 | -4.1
18 | nt | 0.3 | -1 | 2.5
19 | nt | -0.1 | nt | 77*
20 | 4 | 2.1 | 9 | 9.0
21 | nt | -0.3 | 49 | 0.3
22 | nt | -0.2 | -9 | -0.3&-5.4
23 | nt | 0.4 | nt | 3.4
24 | nt | -0.5 | 9 | -4.4

Further results
nr | molecule | Vif TR-FRET | RanGTP-Imp inh | Beta cell apopt | AF4-AF9 inh
25 | CC1O[C@@H](OCC2O[C@@H](Oc3cc(O)c4c(c3)OC(c3ccc(O)cc3)CC4=O)[C@H](O)[C@@H](O)[C@@H]2O)[C@H](O)[C@H](O)[C@H]1O (stereo partly drawn) | nt | nt | -4 | 1.5
26 | CC(=O)OCC(=O)[C@@]1(O)CC[C@H]2[C@@H]3CCC4=CC(=O)C=C[C@]4(C)[C@@]3(F)[C@@H](O)C[C@@]21C | nt | nt | -10 | -9.9
27 | C[C@@H]1C[C@H]2[C@@H]3CCC4=CC(=O)C=C[C@]4(C)[C@@]3(Cl)[C@@H](O)C[C@]2(C)[C@@]1(OC(=O)c1ccco1)C(=O)CCl | nt | nt | 1 | -0.6
28 | CC(=O)Oc1ccc2c(C)cc(=O)oc2c1 | 11% | 0.1 | -1 | nt
29 | O=C(Nc1cc(-c2ccccc2)nn1-c1ccccc1F)c1ccc([N+](=O)[O-])cc1 | nt | nt | 3 | 4.4
30 | CCCC(=O)O[C@]1(C(=O)COC(C)=O)CC[C@H]2[C@@H]3C[C@H](F)C4=CC(=O)C=C[C@]4(C)[C@@]3(F)[C@@H](O)C[C@@]21C | -4% | 4.0 | -7 | -1.1
31 | CN(C)C/C=C(\c1ccc(Br)cc1)c1cccnc1 | nt | nt | -7 | -0.9
32 | CC(C)(C)NCC(O)COc1cccc2c1CC(O)C(O)C2 (stereo not drawn) | nt | nt | -3 | 12
33 | CCc1ccccc1OC[C@@H](O)CN[C@H]1CCCc2ccccc21 | nt | nt | -5 | 2.5
34 | Cc1c(C)n(Cc2ccccc2)c2ccc(C(=O)OCCN(C)C)cc12 | 3% | 2.7 | -2 | 28*
35 | COC(=O)N/N=C/c1c[n+]([O-])c2ccccc2[n+]1[O-] | nt | 3.5 | -10 | 4.5
36 | CCCCOc1cc(C(=O)OCCN(CC)CC)ccc1N | nt | 0.6 | -8&-3 | 4.5&2.1
37 | Cc1cc(=O)oc2cc(O)ccc12 | nt | 2.9 | -11 | -2.0
38 | COc1cc(N)c(Cl)cc1C(=O)N[C@H]1CCN(CCCOc2ccc(F)cc2)C[C@H]1OC | nt | nt | -4 | -4.6

nr | Calb FLC | Bfl-1 A1 inh | T cruzi inh | LANA-H2A inh
25 | nt | -0.6 | nt | -2.8
26 | nt | 1.1 | nt | -1.9
27 | nt | 1.4 | nt | 0.6
28 | -2 | -0.4 | -15 | 2.0
29 | nt | 0.4 | nt | -8.6
30 | nt | 1.1 | 3 | 22*!
31 | nt | 3.1 | nt | -2.6
32 | nt | -0.9 | nt | -0.3
33 | nt | -0.4 | nt | -2.4
34 | -13 | -0.5 | 35 | -2.8
35 | 12 | 0.6 | 7 | 4.7
36 | -16 | 0.1&-0.2 | 1 | 0.8&1.7
37 | -6 | -0.2 | -13 | 1.4
38 | nt | 2.2 | nt | 7.2

Sorted by value in RanGTP-Imp inh (smallest number first): three of the compounds above
# | canonical_smiles | RanGTP-Imp inh
34 | Cc1c(C)n(Cc2ccccc2)c2ccc(C(=O)OCCN(C)C)cc12 | 2.7
37 | Cc1cc(=O)oc2cc(O)ccc12 | 2.9
35 | COC(=O)N/N=C/c1c[n+]([O-])c2ccccc2[n+]1[O-] | 3.5

Of the compounds above, 8 contain four or more nitrogen atoms.
nr | molecule | Vif TR-FRET | RanGTP-Imp inh | Beta cell apopt | AF4-AF9 inh
1 | Cc1nc2c3ccccc3nc(NNC(=O)CCC(=O)N3CCN(c4ccccc4F)CC3)n2n1 | 14% | -0.4 | 3 | -0.5
9 | CCN(CC)CC1CCCCN1CC(=O)N1c2ccccc2C(=O)Nc2cccnc21 (stereo not drawn) | -21% | 5.9 | 1 | nt
10 | N=c1nc(N2CCCCC2)cc(N)n1O | 29% | ? | -1&-4 | 1.7&-6.1
11 | Cc1scc2c1N(C(=O)CN1CCN(C)CC1)c1ccccc1NC2=O | 1% | 2.5 | 6 | -5.1
16 | CN(C)S(=O)(=O)n1cc(/C=C(\NC(=O)c2ccccc2)C(=O)NCCCn2ccnc2)c2ccccc21 | -11% | 1.1 | -5 | 9.0
19 | O=C1c2c(O)ccc(O)c2C(=O)c2c(NCCNCCO)ccc(NCCNCCO)c21 | 8µM* | nt | 67 | 97*
29 | O=C(Nc1cc(-c2ccccc2)nn1-c1ccccc1F)c1ccc([N+](=O)[O-])cc1 | nt | nt | 3 | 4.4
35 | COC(=O)N/N=C/c1c[n+]([O-])c2ccccc2[n+]1[O-] | nt | 3.5 | -10 | 4.5

nr | Calb FLC | Bfl-1 A1 inh | T cruzi inh | LANA-H2A inh
1 | 5 | 0.5 | -6 | 2.7
9 | nt | -0.2 | -18 | 0.8
10 | nt | -0.1&-0.1 | -4&-10 | -0.1&-12
11 | 11 | -0.1 | -26 | -1.4
16 | -6 | 0.6 | -23 | -1.5
19 | nt | -0.1 | nt | 77*
29 | nt | 0.4 | nt | -8.6
35 | 12 | 0.6 | 7 | 4.7
